Screening data from PubChem BioAssay.
LANA-H2B inh: blockers of LANA interaction with H2A/H2B – biochemical, FP readout, HTS, primary screen; Protein LANA1 (Human herpesvirus 8 type P (isolate GK18)), Q9QR71; cell-free LANA-H2A/H2B peptide, fluorescence polarization; inhibition, % (test concentration not listed); 320,000 tested, 0.6% active; in the data active means inhibition mostly above about 10%, no sharp cut-off; inactive means mostly below about 6.7%;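 further: stock transfer was 7.5 nL into about 10 µL; 0% = median of vehicle wells and 100% = median of positive control wells; one replicate is shown; the record names a cut of 25% in any replicate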
ALR H2O2 inh: inhibitors of human ALR sulfhydryl oxidase, primary screen, biochemical, H2O2 detection, HRP-luminol luminescence, single point; FAD-linked sulfhydryl oxidase ALR (Homo sapiens), P55789; purified ALR, DTT oxidation; inhibition, % (no concentration beside the values); 290,000 tested, 3.8% active; AID 485317, 2010;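 active means mean and each replicate at 75% or more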;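 further: stock transfer was 7.5 nL into about 7.5 µL; 0% = neutral wells and 100% = wells with inactivated enzyme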
Target sequence (P55789 whole entry, looked up): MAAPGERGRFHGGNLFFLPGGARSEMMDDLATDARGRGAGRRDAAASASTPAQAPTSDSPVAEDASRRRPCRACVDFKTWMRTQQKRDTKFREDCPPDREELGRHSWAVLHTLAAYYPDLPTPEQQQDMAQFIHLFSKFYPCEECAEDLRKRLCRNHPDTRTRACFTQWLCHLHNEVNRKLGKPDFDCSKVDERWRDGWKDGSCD
Beta2AR agonist: beta2AR agonists driving receptor internalization, primary screen, cell-based, FAP fluorogen, flow cytometry. response, % (concentration not given with the values). 340,000 tested, 0.43% active. Beta-2 adrenergic receptor (Homo sapiens), P07550. Am2.2-beta2AR cells; reference of the scale not given here. AID 504454, 2011;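 active means response above a set limit, near 3 SD of response in nonfluorescent compounds, cut at about 42% in these data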;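 further: stock transfer was 100 nL into about 11 µL; a reference agonist was the positive control; negative values mostly stem from fluorescent compounds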
Target sequence (P07550 whole entry, looked up): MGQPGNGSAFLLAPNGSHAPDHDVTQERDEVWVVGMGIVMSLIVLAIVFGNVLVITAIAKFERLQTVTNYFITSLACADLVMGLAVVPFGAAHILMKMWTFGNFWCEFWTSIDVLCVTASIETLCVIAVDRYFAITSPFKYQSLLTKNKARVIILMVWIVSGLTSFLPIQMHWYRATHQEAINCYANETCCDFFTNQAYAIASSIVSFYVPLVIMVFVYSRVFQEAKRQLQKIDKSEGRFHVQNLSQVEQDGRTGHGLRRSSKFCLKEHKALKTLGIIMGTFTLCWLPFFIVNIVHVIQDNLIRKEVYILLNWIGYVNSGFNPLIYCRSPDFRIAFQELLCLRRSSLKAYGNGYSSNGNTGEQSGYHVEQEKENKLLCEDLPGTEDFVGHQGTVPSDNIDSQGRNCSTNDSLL
FGF22 binding: binders of human FGF22 protein, primary screen, FGF22 synaptogenesis inhibitor project, biophysical, thermal shift, single point; recombinant FGF22 thermal shift, SYPRO orange fluorescence; percent of sucrose octasulfate shift, DMSO zero; calls only at 9.99 µM; 340,000 tested, 1.5% active;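 active means melting point raised past a set limit in the mean and every replicate; three in four hits are not shown here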
HNF4A DNA FP: change in binding of human HNF4A to DNA, primary screen, biochemical, fluorescence polarization, FITC-DNA; activity change, % at 10 µM; 360,000 tested, 0.3% active; AID 1224865, 2016; Hepatocyte nuclear factor 4-alpha (Homo sapiens), P41235; 1 h; in the data active means activity change above about 30%, passing the limit was not always enough;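 further: controls were the assay level and a saturating level of protein; the project sought stronger binding though the title names inhibitors; some compounds called inactive have numbers as strong as hits; positive values seem to mean higher polarization but the record does not say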
Target sequence (P41235 whole entry, looked up): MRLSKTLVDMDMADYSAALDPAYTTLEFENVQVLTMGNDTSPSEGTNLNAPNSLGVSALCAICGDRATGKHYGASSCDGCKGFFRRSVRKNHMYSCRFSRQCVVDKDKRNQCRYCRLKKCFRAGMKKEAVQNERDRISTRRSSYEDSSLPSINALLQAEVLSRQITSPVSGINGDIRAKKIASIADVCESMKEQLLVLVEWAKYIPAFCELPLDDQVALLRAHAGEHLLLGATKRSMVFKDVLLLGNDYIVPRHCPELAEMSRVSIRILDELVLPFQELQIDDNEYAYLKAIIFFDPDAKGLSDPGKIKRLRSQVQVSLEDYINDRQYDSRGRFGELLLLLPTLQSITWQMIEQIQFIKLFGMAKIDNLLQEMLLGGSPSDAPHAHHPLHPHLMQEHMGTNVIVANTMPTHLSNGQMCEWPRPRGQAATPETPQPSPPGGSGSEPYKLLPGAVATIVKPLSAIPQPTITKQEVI
UCH37 inh: inhibitors of human UCH37 deubiquitinase, primary screen, biochemical, Ub-AMC cleavage, fluorescence | Ubiquitin carboxyl-terminal hydrolase isozyme L5 (Homo sapiens), Q9Y5K5 | purified proteasome/UCH37 | inhibition, % (test concentration not listed) | 330,000 tested, 0.33% active;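 active means mean of two replicates above 20%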;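 further: 0% = compound-free wells with enzyme and 100% = wells lacking proteasome; stock transfer was 100 nL into about 20 µL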
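Material: Human UCH37 enzyme supplied as purified proteasome complex | Schedule: 30 min preincubation with enzyme, 25 min cleavage at room temperature | Detection: AMC fluorescence 355/460 nm | Measure: % inhibition of Ub-AMC cleavage fluorescence | Controls: Wells without proteasome as full block, compound-free enzyme plus substrate as uninhibited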
Ecoli growth: E. coli growth inhibition, primary screen, OD600. Escherichia coli growth, 23 h; stronger effect = lower value. OD600 absorbance (concentration not given with the values). 330,000 tested, 0.21% active;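 active means OD600 absorbance below the run mean of sample wells minus 3.6 SD, in any replicate, cut at about 0.56 in these data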;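 further: stock transfer was 300 nL into about 60 µL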
Starred values were filed as active, the others as inactive; i = inactive; · = not tested or not shown. This is a subset; count on the stated rates, not on these rows.

SMILES | LANA-H2B inh | ALR H2O2 inh | Beta2AR agonist | FGF22 binding | HNF4A DNA FP | UCH37 inh | Ecoli growth
O=C(COC(=O)C1CCN(S(=O)(=O)c2ccc3c(c2)OCCO3)CC1)Nc1ccc(C(F)(F)F)cc1 | 6.9 | -4 | -1 | · | -2.6 | 3.3 | 0.71
Cc1nc2sc(C(c3ccc(Br)cc3)N3CC(C)OC(C)C3)c(O)n2n1 (stereo unspecified) | 0.9 | -19 | -15 | · | -0.8 | 3.0 | 0.73
CCCc1ccc(NC(C)C(=O)Nc2ccc(S(=O)(=O)N3CCOCC3)cc2)cc1 (stereo unspecified) | · | · | -5 | i | -2.9 | 4.3 | 0.71
CN(CCNC(=O)C1CCN(S(=O)(=O)c2cnc[nH]2)CC1)Cc1ccccc1 | 1.9 | 14 | 2 | · | -0.3 | 1.1 | 0.69
Cc1ccccc1C(=O)NNC(=S)NC(=O)c1ccccc1 | 2.4 | 98* | 0 | · | -1.1 | 4.6 | 0.7
O=C(C1COc2ccccc2O1)N1CCN(c2ccc(C(F)(F)F)cn2)CC1 (stereo unspecified) | 6.1 | -2 | -7 | i | 1.6 | 2.1 | 0.69
CCN(CC)S(=O)(=O)c1ccc(O)c(C(=O)OCC(=O)N2CCCC2)c1 | 4.1 | -2 | -12 | i | 0.4 | -16 | 0.7
CCc1ccccc1NC(=O)COc1ccc2oc(-c3ccc(OC)cc3)cc(=O)c2c1 | 2.5 | -5 | -13 | i | -9.6 | -231 | 0.72
C=CCn1c(C)cc(-c2csc(NC(=O)C3=COCCO3)n2)c1C | -2.7 | · | 13 | i | 2.7 | 0.4 | 0.63
COc1ccccc1NC(=O)CSc1nc2sc3c(c2c(=O)n1-c1ccccc1)CCN(C)C3 | -0.8 | 99* | 12 | i | 14 | -172 | 0.71
Cc1ccc(C)c(OCCC(=O)N2CCN(S(=O)(=O)c3cc(C)ccc3C)CC2)c1 | -1.6 | -2 | -6 | i | -0.5 | 2.2 | 0.71
COCCCN(C(=O)c1cc(Cl)nc2ccccc12)c1c(N)n(Cc2ccccc2)c(=O)[nH]c1=O | · | · | -3 | · | 1.4 | 1.3 | 0.7
COc1cccc(C(=O)Nc2nnc(SCC(=O)NC3CCCC3)s2)c1 | 2.0 | 0 | 1 | i | 0.8 | 3.0 | 0.69
O=C(COc1ccc(S(=O)(=O)NC2CCCCC2)cc1Cl)NCc1cccnc1 | -11 | -1 | 7 | · | 0.8 | 5.8 | 0.68
CC1(C)CC(=O)C=C(Nc2ccccc2F)C1 | 3.5 | · | 0 | · | 1.8 | 1.5 | 0.72
Cc1cc(C)c(NC(=O)c2ccoc2C)c(C)c1 | 3.2 | 1 | 0 | · | 0.6 | 0.2 | 0.7
O=S(=O)(/N=C(/c1ccc(F)cc1)N1CCCCC1)c1ccc(Cl)cc1 | 0.5 | -2 | -9 | i | -0.5 | · | ·
CC(C)c1ccc2c(c1)C(c1cccs1)=NNC(c1ccncc1)=N2 | -1.0 | 2 | -5 | i | 1.6 | 2.7 | 0.68
O=C(CSc1ncn(-c2ccccc2)n1)Nc1nc2c(s1)CCCC2 | -8.0 | -1 | -4 | · | -9.1 | 1.1 | 0.73
COc1ccc(S(=O)(=O)NCCSc2ccccc2)cc1OC | -1.8 | -6 | -15 | · | -6.1 | 4.2 | 0.72
COC(=O)CSc1nc(N)nc(C)c1Br | 1.4 | 2 | 4 | · | 1.5 | 0.8 | 0.68
COc1ccccc1CC(=O)NCC1CCCO1 (stereo unspecified) | 1.2 | -7 | 0 | · | -2.1 | -2.6 | 0.77
CC(=O)c1cccc(NC(=O)N2CCCC2C(=O)Nc2ccccc2C)c1 (stereo unspecified) | 2.2 | -3 | 3 | · | -5.2 | -1.5 | 0.72
CS(=O)(=O)c1nc(S(=O)(=O)c2ccc(Cl)cc2)c(N2CCCCCC2)s1 | -3.4 | -1 | -7 | i | 8.8 | 2.2 | 0.68
CCOC(=O)C1=CNS(=O)(=O)NC1c1ccc2ccccc2c1 (stereo unspecified) | · | · | 9 | i | 1.1 | 0.2 | 0.68
CC(C)(C)c1ccc(-n2ncc3c2CCCC3NC(=O)CCN2CCCCC2=O)cc1 (stereo unspecified) | -4.7 | -7 | 1 | i | 1.8 | 1.1 | 0.69
Cc1cc(C)nc(N/N=C/C(Cl)=C/c2ccccc2)n1 | -4.4 | 2 | -3 | i | 1.9 | · | ·
CSc1ccc(/C=C/C(=O)OCC(=O)N2CCN(S(=O)(=O)c3ccc(C)cc3C)CC2)cc1 | -0.6 | · | -5 | i | 3.7 | -91 | 0.67
Cc1csc(NC(=O)CSc2nnc(-c3ccoc3C)n2CCc2ccccc2)n1 | -2.3 | -1 | 0 | · | 0.3 | -0.8 | 0.74
O=C(NCC1CCCN(Cc2ccc3nonc3c2)C1)c1cccc(C(F)(F)F)c1 (stereo unspecified) | 0.9 | 2 | -14 | i | 0.2 | 0.9 | 0.66
CCN1C(=O)C(O)(CC(=O)/C=C/C=C/c2ccccc2)c2ccccc21 (stereo unspecified) | -1.0 | 0 | 10 | · | 0.2 | 10 | 0.72
CCCCC(=O)Nc1cc(NC(=O)CCCC)cc(C(=O)O)c1 | -2.3 | -3 | 1 | · | 2.1 | 1.4 | 0.67
COc1ccc(NC(=O)Cc2ccccc2F)cn1 | -15 | 4 | 23 | i | 2.3 | 2.1 | 0.71
COc1ccc(-c2csc(NC3CCCCC3)n2)c(OC)c1 | -2.1 | -12 | 7 | i | 3.6 | 1.2 | 0.7
CC(C)(C)OC(=O)N1CCCC(C(=O)CC#N)C1 (stereo unspecified) | 4.6 | -3 | 8 | · | 2.1 | -1.0 | 0.7
CCc1nnc(NC(=O)C2CCCN2S(=O)(=O)c2ccccc2)s1 (stereo unspecified) | -2.8 | 2 | 2 | i | 0.6 | -2.6 | 0.67

The closing 3 compounds of the section above lead into the next.
SMILES | LANA-H2B inh | ALR H2O2 inh | Beta2AR agonist | FGF22 binding | HNF4A DNA FP | UCH37 inh | Ecoli growth
COc1ccc(-c2csc(NC3CCCCC3)n2)c(OC)c1 | -2.1 | -12 | 7 | i | 3.6 | 1.2 | 0.7
CC(C)(C)OC(=O)N1CCCC(C(=O)CC#N)C1 (stereo unspecified) | 4.6 | -3 | 8 | · | 2.1 | -1.0 | 0.7
CCc1nnc(NC(=O)C2CCCN2S(=O)(=O)c2ccccc2)s1 (stereo unspecified) | -2.8 | 2 | 2 | i | 0.6 | -2.6 | 0.67
CC(C)(C)NC(=O)C(=O)NNC(=O)c1ccccc1Br | 1.8 | · | -4 | i | -0.8 | -1.9 | 0.74
COc1ccc(CCn2c(=N)c(C(=O)NCC3CCCO3)cc3c(=O)n4ccccc4nc32)cc1 (stereo unspecified) | 1.1 | 3 | 19 | i | 0.8 | -16 | 0.69
Cc1sc2nc(CC(=O)NN)[nH]c(=O)c2c1C | -1.1 | · | 1 | i | 1.2 | 2.1 | 0.69
COc1ccc(CC(=O)NC2CCS(=O)(=O)C2)cc1 (stereo unspecified) | 4.1 | -2 | 10 | i | -3.6 | 5.0 | 0.65
O=C(CSc1nnnn1C1CCCC1)NCc1ccc2c(c1)OCO2 | -1.9 | 1 | -3 | · | 2.6 | 1.3 | 0.68
Oc1ccc[n+](/C=C\c2ccccc2)c1 | 6.2 | -4 | -5 | i | 3.2 | 1.6 | ·
O=C(c1ccc2c(c1)OCO2)N1CCc2ccccc21 | -1.5 | -3 | -4 | i | -0.4 | 1.9 | 0.65
COc1ccc(N2C(=O)c3ccc(C(=O)Nc4cc(OC)ccc4OC)cc3C2=O)cc1 | 0.6 | -4 | -1 | i | -2.6 | 5.6 | 0.68
CC1=NNC(=O)C1CCC(=O)N/N=C/c1ccc(Cl)cc1Cl (stereo unspecified) | 4.4 | 51 | -7 | i | 0.8 | · | ·
Cn1ncc(Cl)c1C(=O)N1CCN(c2ccc(F)cc2)CC1 | -1.7 | 26 | -1 | i | 0.9 | 0.4 | 0.64
Cc1cc(NC(=O)CCC(=O)N(C(C(=O)NC(C)(C)C)c2ccccc2Cl)C(C)(C)C)no1 (stereo unspecified) | -5.0 | · | -7 | i | 5.2 | -1.9 | 0.68
COc1ccc(OC)c(S(=O)(=O)N/N=C(/C)c2ccc3c(c2)OCO3)c1 | 0.6 | 9 | 1 | i | 1.2 | · | ·

Reformatted as labelled records: part of the list above.
Oc1ccc[n+](/C=C\c2ccccc2)c1
  LANA-H2B inh: 6.2
  ALR H2O2 inh: -4
  Beta2AR agonist: -5
  FGF22 binding: i
  HNF4A DNA FP: 3.2
  UCH37 inh: 1.6
  Ecoli growth: ·

Cc1sc2nc(CC(=O)NN)[nH]c(=O)c2c1C
  LANA-H2B inh: -1.1
  ALR H2O2 inh: ·
  Beta2AR agonist: 1
  FGF22 binding: i
  HNF4A DNA FP: 1.2
  UCH37 inh: 2.1
  Ecoli growth: 0.69

CC1=NNC(=O)C1CCC(=O)N/N=C/c1ccc(Cl)cc1Cl (stereo unspecified)
  LANA-H2B inh: 4.4
  ALR H2O2 inh: 51
  Beta2AR agonist: -7
  FGF22 binding: i
  HNF4A DNA FP: 0.8
  UCH37 inh: ·
  Ecoli growth: ·

(list continues)
SMILES | LANA-H2B inh | ALR H2O2 inh | Beta2AR agonist | FGF22 binding | HNF4A DNA FP | UCH37 inh | Ecoli growth
O=C(O)/C=C/C(=O)NCCC(c1ccccc1)c1ccccc1 | -4.1 | -1 | 0 | i | 2.6 | 0.1 | 0.65
CCOc1cc(/C=C2/SC(=S)NC2=O)ccc1OC(=O)c1ccco1 | 6.4 | 98* | 12 | i | 24 | 1.4 | ·
Cc1cccc(C(=O)Nc2ccc(S(=O)(=O)N3CCOCC3)cc2C)c1 | 2.6 | 7 | 0 | i | 0.6 | -0.1 | 0.67
CCN(CC)c1ccc(/C=C2\SC(N)=NC2=O)cc1 | -6.6 | 99* | 8 | i | 126 | 5.6 | 0.74
CC(=O)N1CCC(N(CCCOC(C)C)S(=O)(=O)c2ccc([N+](=O)[O-])cc2)CC1 | 0.3 | -29 | -11 | i | -2.2 | 1.3 | 0.68
COc1cc(C2C(C#N)=C(N)Oc3cc(C)n(CCN4CCOCC4)c(=O)c32)cc(OC)c1OC (stereo unspecified) | 4.0 | -1 | -6 | · | 1.7 | 10 | 0.71
COc1ccc(N2CCN(C(CNC(=O)C(=O)NCCC3=CCCCC3)c3ccco3)CC2)cc1 (stereo unspecified) | -3.0 | 3 | -3 | · | 2.4 | 7.3 | 0.7
N#CCCn1cc(/C=N/NC(N)=S)c(-c2ccc(-c3ccccc3)cc2)n1 | -0.4 | -2 | -1 | i | -0.2 | · | ·
CC(NC(=O)CSc1ccc(S(=O)(=O)N2CCOCC2)cn1)c1ccc(Cl)cc1Cl (stereo unspecified) | · | · | 8 | i | 2.5 | 4.2 | 0.72
CC(C)(C)NC(=O)CN(C(=O)Cn1nnc(-c2ccc(Cl)cc2)n1)C1CCN(Cc2ccccc2)CC1 | 1.3 | -4 | 7 | · | -1.1 | 2.2 | 0.67
O=c1cc(-c2ccc(O)cc2)oc2c(O)c(O)c(O)c(O)c12 | -0.7 | 86* | -1 | i | -57 | 69* | 0.76
CN(C(=O)c1ccc2c(=O)n3c(nc2c1)CCCCC3)c1cccc(Cl)c1 | -0.7 | 1 | -7 | i | 2.5 | 3.2 | 0.66
CCN1CCN(c2ncnc3c2cnn3-c2ccc(C)cc2C)CC1 | 0.1 | -5 | 8 | i | -0.8 | 2.5 | 0.7
O=C(COc1ccccc1C(=O)NCc1ccccc1)Nc1ccccc1 | -8.4 | 5 | -5 | i | 3.3 | -0.4 | 0.66
O=C(Cn1c(-c2ccc(Cl)cc2)noc1=O)N1CCN(c2ccccc2F)CC1 | -0.2 | -5 | -2 | · | 3.1 | 5.3 | 0.71
